EPAC1 ag val: validation of human EPAC1 agonists. O95398. AID 1645883. Potency, µM, for the others: max response, positive = active, actives largely listed as activators. actives 1% (n = 16,000). EPAC1 Rap1b BODIPY-GDP exchange, fluorescence; active = well fitted activation curve with a large enough effect; inconclusive = small, poorly fitted or top-dose-only effect; inactive = no such curve, though single readings can be large or run the other way;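 also: nearly all actives have a fitted effect of over 70% in size; series mostly up to about 76 or 150 µM; scaled to a cAMP control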
Target sequence (O95398 whole entry, looked up): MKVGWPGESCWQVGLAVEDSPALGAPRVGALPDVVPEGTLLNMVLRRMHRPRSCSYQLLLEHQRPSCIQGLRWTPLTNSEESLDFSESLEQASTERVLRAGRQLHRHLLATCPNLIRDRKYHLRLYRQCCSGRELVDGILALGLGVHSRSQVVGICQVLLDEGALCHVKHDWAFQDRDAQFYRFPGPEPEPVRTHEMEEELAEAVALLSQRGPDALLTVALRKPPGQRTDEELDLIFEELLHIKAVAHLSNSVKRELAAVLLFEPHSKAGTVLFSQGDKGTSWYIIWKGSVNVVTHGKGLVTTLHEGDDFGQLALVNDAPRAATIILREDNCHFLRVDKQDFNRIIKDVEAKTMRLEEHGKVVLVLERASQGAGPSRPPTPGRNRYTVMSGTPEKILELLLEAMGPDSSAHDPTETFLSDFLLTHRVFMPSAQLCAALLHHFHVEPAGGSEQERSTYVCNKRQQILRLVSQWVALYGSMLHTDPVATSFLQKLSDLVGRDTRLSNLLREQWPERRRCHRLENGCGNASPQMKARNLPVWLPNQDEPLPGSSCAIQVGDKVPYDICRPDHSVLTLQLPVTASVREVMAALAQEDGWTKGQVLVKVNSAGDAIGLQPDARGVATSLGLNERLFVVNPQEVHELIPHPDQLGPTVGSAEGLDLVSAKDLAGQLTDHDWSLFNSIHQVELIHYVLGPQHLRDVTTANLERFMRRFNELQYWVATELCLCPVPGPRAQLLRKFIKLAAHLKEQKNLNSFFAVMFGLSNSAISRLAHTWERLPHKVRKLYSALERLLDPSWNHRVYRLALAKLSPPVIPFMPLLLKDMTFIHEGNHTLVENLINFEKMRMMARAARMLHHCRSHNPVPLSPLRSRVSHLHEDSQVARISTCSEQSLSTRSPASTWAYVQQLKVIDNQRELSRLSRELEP
* marks the source's active call; other numbers are inactive results; u = inconclusive; & = joins results of further samples; [ ] = another dose, or the depositor's remark. % is scaled to controls: 0 for no effect and ±100 for the full control effect; potency is read from the fitted curve at half-maximal effect. A portion of the library (hit frequency here may not be typical).

mol,EPAC1 ag val
C=C[C@@H]1c2cc(C)ccc2N(S(=O)(=O)c2ccc(C)cc2)[C@H](c2ccccc2C(F)(F)F)C1(C#N)C#N,3%
C=C1C(=O)OC2C[C@@]3(C)CCCC(=C)[C@@H]3CC12 (stereo partly drawn),7%
O=C(Nc1ccccc1)N1CCCC2(CCN(C(=O)c3ccco3)CC2)C1,-25%
Cc1noc(C)c1-c1ccc2ncnc(Nc3ccccc3)c2c1,-25%
Cc1cc(C(=O)Nc2ccccc2-c2nc(CNC(=O)c3ccccc3Cl)c(C)o2)c(C)o1,-9%
CCC1(C2CCN(Cc3c(C)[nH]c4ccccc34)CC2)NC(=O)N(Cc2ccc3c(c2)OCO3)C1=O (stereo not drawn),12%
CC(C)NC(=O)N1CCC2(CC1)CCN(C(=O)c1cc(C(F)(F)F)cc(C(F)(F)F)c1)CC2,-100%[inhibitor]
COc1cc(-c2ccc(-[n+]3nc(-c4ccccc4)nn3-c3ccc([N+](=O)[O-])cc3)c(OC)c2)ccc1-[n+]1nc(-c2ccccc2)nn1-c1ccc([N+](=O)[O-])cc1,13%
COCCn1c(=O)c(-c2ccc(F)cc2)nc2cnc(OC)nc21,-22%
CCCN(CCC)C[C@@H]1CCCCN1CCNC(=O)N1c2ccccc2C(=O)Nc2cccnc21,-7%
COc1ccc(-c2nc3cnc(OCc4ccccc4)nc3n(CCC#N)c2=O)cc1,-66%[inhibitor]
COC(=O)CC1C(C)(C)C(=O)C2CC3=C4CC(=O)OC(c5ccoc5)[C@]4(C)CCC3[C@@]1(C)C2=O (stereo partly drawn),5%
C[C@]12CCC(=O)C[C@@H]1CC[C@@H]1[C@@H]2CC[C@]2(C)C=CC[C@@H]12,-5%
CC1(O)CCC(C(C)(C)O)CC1 (stereo not drawn),3%
Cc1cccc(CNC(=O)c2cnn(-c3nccc(-c4ccccc4F)n3)c2C2CC2)n1,-15%
C[C@H]1CCC(=O)N(CCSc2ccc(Br)cc2)CC1,-23%
O=C[C@H](O)[C@@H](O)[C@H](O[C@H]1O[C@H](CO)[C@@H](O[C@H]2O[C@H](CO)[C@@H](O)[C@H](O)[C@H]2O)[C@H](O)[C@H]1O)[C@H](O)CO,3%
O=C(Oc1ccccc1)N1CCC2(CC1)CCN(c1cccc(-c3ccccc3)c1)CC2,19%
CCCc1ncc(C[n+]2ccccc2C)c(N)n1,-29%&23%
COc1cc2ccc(=O)oc2c(O)c1OCC=C(C)C,9%
CNCC[C@@H](Oc1ccccc1C)c1ccccc1,-30%&8%[inhibitor]
CCC(=O)OCC(=O)C1(OC(=O)CC)C(C)CC2C3C(Cl)CC4=CC(=O)C=C[C@@]4(C)C3C(O)C[C@@]21C (stereo partly drawn),-3%
CN(Cc1ccco1)c1ncncc1-c1cccc(C#N)c1,-8%
CCCCCCCC/C=C\CCCCCCCC(N)=O,-9%&-27%
Cc1c(C(=O)N2CCCC2)sc2ncnc(NCCN(C)C)c12,5%
CC(C)(C)CC(C)(C)N=C1Nc2ccc(Cl)cc2NC12C[C@H]1CCC(=O)N3CC[C@@H](C2)[C@@H]13 (stereo partly drawn),-133%[inhibitor]
CN1CCN(CCCN2c3ccccc3Sc3ccc(Cl)cc32)CC1,14%&-94%&26%
Cc1cnc(CNc2nc(-c3ccc4c(c3)OCO4)nc3ccccc23)cn1,u
Cc1ccc(SC[C@H](C)CN2CC[C@H](C(C)(C)C)CCC2=O)cc1,-2%
CCCNCC(O)COc1ccccc1C(=O)CCc1ccccc1 (stereo not drawn),-1%&17%&-8%&-4%
COc1ccccc1Oc1c(NS(=O)(=O)c2ccc(C(C)(C)C)cc2)nc(-c2ncccn2)nc1OCCO,-31%[inhibitor]
NS(=O)(=O)c1cc2c(cc1Cl)NC(C1CC3C=CC1C3)NS2(=O)=O (stereo not drawn),4%&1%
O=C(NCCO)c1cn(C2CCN(Cc3c(F)cccc3Cl)CC2)nn1,-35%[inhibitor]
O=S1(=O)CCO[C@H]2Cc3ccccc3[C@H]2N1Cc1cccc(F)c1,-15%
C1N2CN3CN1CN(C2)C3,16%&-2%
C[C@H](CCCC(C)(C)O)[C@H]1CC[C@H]2[C@@H]3CC=C4C[C@@H](O)CC[C@]4(C)[C@H]3CC[C@]12C,25%
CCOc1ccc(Cc2nccc3cc(OCC)c(OCC)cc23)cc1OCC,-26%&-33%
COc1cccc(-c2cncnc2NCc2cnc(C)cn2)c1,20%
CC(C)n1c(/C=C/[C@@H](O)C[C@@H](O)CC(=O)O)c(-c2ccc(F)cc2)c2ccccc21,-48%[inhibitor]
NC(N)=NC(N)=Nc1cccc(Cl)c1,-3%&-7%&-28%
NCCC(=O)c1ccccc1N,-2%
Oc1cc2c(c(Cl)c1O)CCNC[C@H]2c1ccccc1,7%
CCN(CC)c1ccc(/C=C/c2ccncc2)cc1,-39%
COc1ccc(-n2c(=O)c(C)nc3cnc(N4CCOCC4)nc32)cc1,-15%
CC(C)(C)c1ccc(C(=O)C[n+]2cccc(Br)c2)cc1,24%
CCCCCCCCCCCCCCCCOP(=O)([O-])OCC[N+](C)(C)C,-41%[inhibitor]
N[C@@H](C(=O)O)c1ccc(C(=O)O)c(C(=O)O)c1,-14%&7%&9%&-8%
NCC1OC(n2cnc3c(=O)[nH]c(N)nc32)C(O)C1O (stereo not drawn),u
O=C(O)c1ccc(NC2OC[C@@H](O)[C@H](O)[C@H]2O)cc1 (stereo partly drawn),-13%
COc1cc(C(=O)Oc2ccc3c(OC)c4ccoc4nc3c2OC)cc(OC)c1OC,3%
Cc1nc2cnc(Oc3ccccc3)nc2n(Cc2cccs2)c1=O,25%
CCC[C@@H]1C[C@@H](C(=O)N[C@@H]([C@H]2O[C@H](SC)[C@H](O)[C@@H](O)[C@H]2O)[C@@H](C)O)N(C)C1,-6%
O=C(O)c1cc(O)c2c(c1)[O][Bi][O]2,16%
O=C(c1cnccn1)N1CCC2(CCCN(Cc3ccncc3)C2)CC1,14%
O=C(O)P(=O)(O)O,u
COc1cccc(-c2nccc(NCc3cnc(C)cn3)n2)c1,1%
CC(C)Cc1nc2cc(NS(=O)(=O)N(C)C)cc(C(=O)N3CCOCC3)c2n1C,-5%
NC(=O)c1ncn(C2OC(CO)C(O)C2O)c1N (stereo not drawn),-26%
COCCn1c(=O)cnc2cnc(Oc3cccc(Cl)c3)nc21,-14%
C[C@]12CCC(=O)C=C1CC[C@@H]1C2[C@@H](O)C[C@@]2(C)[C@H]1CC[C@]2(O)C(=O)CO (stereo partly drawn),12%

An excerpt from the list above:
mol,EPAC1 ag val
COCCn1c(=O)cnc2cnc(Oc3cccc(Cl)c3)nc21,-14%
C[C@]12CCC(=O)C=C1CC[C@@H]1C2[C@@H](O)C[C@@]2(C)[C@H]1CC[C@]2(O)C(=O)CO (stereo partly drawn),12%

More entries
mol,EPAC1 ag val
Clc1ccc(-n2cccc2CN2CCOc3ccc(CN4CCOCC4)cc3C2)nc1,-10%
CCCN(CCC)S(=O)(=O)c1ccc(C(=O)O)cc1,11%&-10%
N#Cc1ccc(CN2CCC3(CC2)CCN(C(=O)c2cccc(F)c2)CC3)cc1,-80%[inhibitor]
Cc1cnc(SCc2ccccn2)nc1C1CCCN(C(=O)c2ccc(-c3ccccc3F)cc2)C1 (stereo not drawn),27%
C[C@H](N=C(NC#N)Nc1ccncc1)C(C)(C)C,2%
CO/N=C(\C(=O)N[C@@H]1C(=O)N2C(C(=O)O)=C(COC(C)=O)CS[C@H]12)c1csc(N)n1,3%
CC(=O)N1CCC2(CCCN(C(=O)Nc3cccc(F)c3)C2)CC1,-29%
O=C(NCCc1ccccn1)c1cnn(-c2ncc3c(n2)-c2ccccc2CC3)c1C1CC1,5%
O=C(O)[C@H]1CN(C/C=C/P(=O)(O)O)CCN1,-10%
CN1CCc2cc(O)c(O)cc2C(c2ccccc2)C1 (stereo not drawn),0%
Cc1oc(-c2ccccc2NC(=O)C2CCCO2)nc1CNC(=O)c1cc(F)c(F)cc1F (stereo not drawn),-9%
Cc1cnc(SCC2CCCO2)nc1C1CCCN(C(=O)C2=NNC(=O)CC2)C1 (stereo not drawn),-9%
CCn1c(-c2ccccc2F)nc2cc(C(=O)N3CCNC(=O)C3CC(=O)OC)cc(NC(C)=O)c21 (stereo not drawn),10%
NC1[C@H]2CN(c3nc4c(cc3F)c(=O)c(C(=O)O)cn4-c3ccc(F)cc3F)C[C@@H]12 (stereo partly drawn),-6%
COc1ccc2c(c1)-c1nc(-n3ncc(C(=O)N(C)CC4CCCN(C)C4)c3C3CC3)ncc1CC2 (stereo not drawn),-6%
COc1ccc(-c2nc3cnc(Nc4cccc(OC)c4)nc3n(CCC#N)c2=O)cc1,100µM*
COc1ccc(C(=O)N2CCC[C@@]3(CCN(C(=O)Nc4cccc(C#N)c4)C3)C2)cc1,-36%[inhibitor]
CN(Cc1cc(Br)cc(Br)c1N)C1CCCCC1,u
O=c1c(-c2cccc(Cl)c2)nc2cncnc2n1Cc1ccccc1,u
CCC1=C(C)CN(C(=O)NCCc2ccc(S(=O)(=O)NC(=O)NC3CCC(C)CC3)cc2)C1=O (stereo not drawn),-43%[inhibitor]

Another view of part of the listing above.
EPAC1 ag val	Structure
-14%	COCCn1c(=O)cnc2cnc(Oc3cccc(Cl)c3)nc21
12%	C[C@]12CCC(=O)C=C1CC[C@@H]1C2[C@@H](O)C[C@@]2(C)[C@H]1CC[C@]2(O)C(=O)CO (stereo partly drawn)
-10%	Clc1ccc(-n2cccc2CN2CCOc3ccc(CN4CCOCC4)cc3C2)nc1
11%&-10%	CCCN(CCC)S(=O)(=O)c1ccc(C(=O)O)cc1
-80%[inhibitor]	N#Cc1ccc(CN2CCC3(CC2)CCN(C(=O)c2cccc(F)c2)CC3)cc1
27%	Cc1cnc(SCc2ccccn2)nc1C1CCCN(C(=O)c2ccc(-c3ccccc3F)cc2)C1 (stereo not drawn)
2%	C[C@H](N=C(NC#N)Nc1ccncc1)C(C)(C)C
3%	CO/N=C(\C(=O)N[C@@H]1C(=O)N2C(C(=O)O)=C(COC(C)=O)CS[C@H]12)c1csc(N)n1
-29%	CC(=O)N1CCC2(CCCN(C(=O)Nc3cccc(F)c3)C2)CC1
5%	O=C(NCCc1ccccn1)c1cnn(-c2ncc3c(n2)-c2ccccc2CC3)c1C1CC1
-10%	O=C(O)[C@H]1CN(C/C=C/P(=O)(O)O)CCN1
0%	CN1CCc2cc(O)c(O)cc2C(c2ccccc2)C1 (stereo not drawn)
-9%	Cc1oc(-c2ccccc2NC(=O)C2CCCO2)nc1CNC(=O)c1cc(F)c(F)cc1F (stereo not drawn)
-9%	Cc1cnc(SCC2CCCO2)nc1C1CCCN(C(=O)C2=NNC(=O)CC2)C1 (stereo not drawn)
10%	CCn1c(-c2ccccc2F)nc2cc(C(=O)N3CCNC(=O)C3CC(=O)OC)cc(NC(C)=O)c21 (stereo not drawn)
-6%	NC1[C@H]2CN(c3nc4c(cc3F)c(=O)c(C(=O)O)cn4-c3ccc(F)cc3F)C[C@@H]12 (stereo partly drawn)
-6%	COc1ccc2c(c1)-c1nc(-n3ncc(C(=O)N(C)CC4CCCN(C)C4)c3C3CC3)ncc1CC2 (stereo not drawn)
100µM*	COc1ccc(-c2nc3cnc(Nc4cccc(OC)c4)nc3n(CCC#N)c2=O)cc1
-36%[inhibitor]	COc1ccc(C(=O)N2CCC[C@@]3(CCN(C(=O)Nc4cccc(C#N)c4)C3)C2)cc1

The results go on.
mol,EPAC1 ag val
CCOC(=O)C[C@H]1c2ccccc2S(=O)(=O)N1c1ccccc1,9%
CCOc1ccc(C[C@H]2NC(=O)CCSSC[C@@H](C(=O)N3CCC[C@H]3C(=O)N[C@@H](CCCN)C(=O)NCC(N)=O)NC(=O)[C@H](CC(N)=O)NC(=O)[C@H]([C@@H](C)O)NC(=O)[C@H]([C@@H](C)CC)NC2=O)cc1,3%
O=c1cc(-c2ccccc2)oc2cc(O[C@@H]3O[C@H](CO)[C@@H](O)[C@H](O)[C@H]3O)c(O)c(O)c12,-6%
CCCCCCCCCCCC1=C(O)C(=O)C=C(O)C1=O,-28%&-56%&-22%
COc1ccccc1CN1CCC2(CC1)CCN(S(=O)(=O)c1ccccc1)CC2,-56%[inhibitor]
Cc1cnc(CNc2cc(-c3cccc(C#N)c3)ncn2)cn1,-33%[inhibitor]
CCN1C(=O)CC(CC(=O)N2CCC(c3nc4ccc(F)cc4[nH]3)CC2)(c2ccccc2C)C1=O (stereo not drawn),-12%
O=C(c1cccc(F)c1F)N1CCOc2ccc(CN3CCN(Cc4ccccn4)CC3)cc2C1,-3%
c1csc(CNc2nc(CN3CCCC(c4nc5ccccc5o4)C3)nc3ccccc23)c1 (stereo not drawn),16%
COc1ccccc1CN1CC[C@@]2(CCCN(C(C)=O)C2)C1,-27%
CCN(CC)C(=O)c1ccc(O)c(OC)c1,u
COc1cccc(Cn2c(=O)c(-c3cn(C)c4ccccc34)nc3cnc(N4CCOCC4)nc32)c1,0%
Cn1nccc1C(=O)NCC1CCC2(CCN(Cc3c(O)ccc4ccccc34)CC2)O1 (stereo not drawn),-11%
COCC(=O)N1CCC2(CCCN(C(=O)Nc3ccc(OC)cc3)C2)CC1,-39%[inhibitor]
CCC1C(=O)NCCN1Cc1ccc2c(c1)CN(Cc1ccc3c(c1)OCCO3)CCO2 (stereo not drawn),5%
CCCN1CCC(=O)N([C@H](CSc2ccccc2)c2ccccc2)CC1,14%

Assay outcomes: PubChem, National Center for Advancing Translational Sciences (NCATS)
